MT1-MMP act inh: MT1-MMP (human) activation inhibition. P50281. HT1080 RFP-PRO-GFP cells, GFP/RFP ratio fluorescence, overnight; percent of plate control window, DMSO zero. GFP/RFP ratio change, % at 20 µM. 360,000 compounds, 0.061% hits;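 active = GFP/RFP ratio change of at least 30% with cell ATP level not reduced by more than half and red fluorescence within 50% of control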; note: strong numbers were not always called active
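Assay system: HT1080 RFP-PRO-GFP cells. Benchmarks: DMSO vehicle wells and RFP-L50D-GFP reporter cell wells. Times: overnight cell settling, then overnight compound exposure, 37 °C, 5% CO2. Compound: 20 µM single dose, 1% DMSO. Read-out basis: GFP/RFP fluorescence ratio.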
HIV Env fusion: blocks HIV Env-driven cell-cell fusion; AID 651610; inhibition, % at 12.3 µM; 360,000 compounds, 1.1% hits; HeLa-JRFL Env/CEM21 cell fusion, luciferase;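 active = mean replicate inhibition score of at least 50 and every replicate individually at or above 50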;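 note: 0% = plate neutral controls and 100% = maraviroc near 300 nM; one replicate is shown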
CSC inhib: blocks cancer stem cells; cancer stem cell-like cells viability, luminescence; inhibition, % at 7.5 µM; 300,000 compounds, 1.1% hits; AID 2717;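 active = mean at 75% or more and at least half the replicates too; tested in HMLE shEcad cells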;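 note: 0% = median of negative and 100% = median of positive control wells; the first replicate is given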
PABP polyA inh: blocks human PABP binding to poly(A) RNA; P11940; fluorescence polarization; inhibition, % at 35 µM; 290,000 compounds, 1% hits;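 active = 50% or more with normal probe brightness, or confirmed in later tests; about a fifth of its hits are not listed in these tables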;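 note: calls also rest on retests at 20 µM and on dose response follow-up; controls were probe without protein and protein plus probe with vehicle; some compounds called inactive have numbers as strong as hits; many hits fall short of the cut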
Target sequence (P11940 whole entry, looked up): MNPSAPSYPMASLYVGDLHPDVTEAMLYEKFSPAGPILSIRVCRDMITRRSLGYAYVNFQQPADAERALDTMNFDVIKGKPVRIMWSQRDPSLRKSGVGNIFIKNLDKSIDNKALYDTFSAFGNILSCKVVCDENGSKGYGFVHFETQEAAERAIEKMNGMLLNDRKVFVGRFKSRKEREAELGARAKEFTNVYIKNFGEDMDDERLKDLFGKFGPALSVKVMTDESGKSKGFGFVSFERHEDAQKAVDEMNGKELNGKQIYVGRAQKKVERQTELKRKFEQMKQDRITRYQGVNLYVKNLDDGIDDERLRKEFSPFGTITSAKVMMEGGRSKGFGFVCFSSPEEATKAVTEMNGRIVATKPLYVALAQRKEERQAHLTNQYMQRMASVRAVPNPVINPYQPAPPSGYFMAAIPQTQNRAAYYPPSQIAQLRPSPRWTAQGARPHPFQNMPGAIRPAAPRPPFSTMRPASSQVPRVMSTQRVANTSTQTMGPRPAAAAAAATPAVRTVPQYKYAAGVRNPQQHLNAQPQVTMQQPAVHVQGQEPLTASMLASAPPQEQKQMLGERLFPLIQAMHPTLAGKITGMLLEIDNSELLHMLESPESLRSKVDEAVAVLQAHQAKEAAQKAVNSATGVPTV
Yeast UUG start: modulators of start codon recognition fidelity in yeast. activity score, % at 18.7 µM. S. cerevisiae UUG-firefly luciferase reporter, luminescence/redox ratio. 350,000 compounds, 0.13% hits;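 active = replicate mean at a twofold rise or more, about +100% in these data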;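 note: firefly luciferase made from a UUG start codon reports start codon fidelity; reporter light over untreated wells divided by growth signal over untreated wells; some hits fall short of that in this replicate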
Rce1 inhib: inhibitors of yeast Ras-converting enzyme; yeast membranes, quenched prenylated peptide cleavage fluorescence; AID 2563; Q03530; 290,000 compounds, 0.27% hits; calls only;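 active = fall in fluorescence gain of 50% or more versus controls, with final raw signal at or below 3038400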;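 note: plate controls were neutral control wells for no effect and wells lacking membranes for full effect; tested at 10 µM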
eIF4H FP inh: inhibitors of RNA binding by human eIF4H. inhibition, % at 35 µM. eIF4H fluorescence polarization binding assay. 290,000 compounds, 0.94% hits;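 active = 50% or more with normal probe brightness, or confirmed in later tests; about a fifth of its hits are not listed in these tables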;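 note: calls also rest on retests at 20 µM and on dose response follow-up; 0% = protein and probe with vehicle and 100% = probe without protein; strong numbers were not always called active; many hits fall short of the cut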
MT1-MMP act inh RFP: further read-out of MT1-MMP act inh, marked with its call; RFP signal change, %; measured here: RFP expression control read;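 0 = vehicle wells; hits needed this value within 50% of zero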
Starred values were filed as active, the others as inactive; i = inactive; . = not tested or not shown.

SMILES,CSC inhib,MT1-MMP act inh RFP,MT1-MMP act inh,HIV Env fusion,Rce1 inhib,Yeast UUG start,PABP polyA inh,eIF4H FP inh
O=C(CNC(=O)C12CC3CC(CC(C3)C1)C2)OCc1cc(=O)n2cc(Br)ccc2n1,.,0,1,-12,i,.,0,-1
O=c1c2c(nc3nc(NCc4ccc(Cl)cc4)[nH]n13)CCC2,.,4,1,-8,i,.,-6,1
CCCCC(=O)OC1CCC2C3CCc4cc(O)ccc4C3CCC12C (stereo not given),.,-2,1,-6,.,-13,.,.
CC(C)Sc1nnc([C@H](C)NC(=O)OC(C)(C)C)o1,-10,4,-1,-4,i,-11,-15,-7
CC1CCCN(CCCNC(=O)c2ccc3c(c2)N(Cc2ccccc2F)C(=O)c2ccccc2S3(=O)=O)C1 (stereo not given),-1,-3,-2,0,i,6,-6,14
COc1ccc(NC(=O)CN2CCCC(C)C2)c([N+](=O)[O-])c1 (stereo not given),-2,-2,-2,35,i,-8,-8,-5
CNC(=O)CSc1nc2nn(-c3ccccc3)c(=O)c-2c2n1CCCCC2,1,6,8,.,i,-10,0,-4
S=c1[nH]c2cc(-c3ccccc3)ccc2o1,14,4,0,-6,i,-6,-1,7
COc1cc(OC)c(C(=O)Nc2cc(S(=O)(=O)N3CCOCC3)ccc2N2CCOCC2)cc1OC,.,4,2,-14,.,-6,.,.
O=C(CNS(=O)(=O)c1ccc(Br)s1)NCc1ccc(F)cc1,10,3,4,-5,i,-18,3,4
Cc1cccc(N2CCN(C(=O)C(C)n3nc(C)n4c(cc5occc54)c3=O)CC2)c1C (stereo not given),2,-5,-8,-55,i,1,4,9
O=C(CSc1n[nH]c(-c2cccs2)n1)N1CCCCC1,2,1,-1,5,i,-18,.,.
O=C(CCN1C(=O)c2ccccc2C1=O)NCc1ccc(Cl)cc1,6,1,0,3,i,-19,-9,-9
CN(Cc1ccccc1)C(=O)C1CCN(Cc2ccc(F)cc2)CC1,43,-3,-11,-17,i,1,13,4
COC(=O)c1sc(-c2cccs2)cc1NC(=O)/C=C/C(=O)O,13,-4,-6,-16,i,-11,5,-5

3 entries from above, arranged by the value under HIV Env fusion, low to high.
SMILES	HIV Env fusion
COC(=O)c1sc(-c2cccs2)cc1NC(=O)/C=C/C(=O)O	-16
O=C(CNC(=O)C12CC3CC(CC(C3)C1)C2)OCc1cc(=O)n2cc(Br)ccc2n1	-12
CC1CCCN(CCCNC(=O)c2ccc3c(c2)N(Cc2ccccc2F)C(=O)c2ccccc2S3(=O)=O)C1 (stereo not given)	0

(next part)
SMILES,CSC inhib,MT1-MMP act inh RFP,MT1-MMP act inh,HIV Env fusion,Rce1 inhib,Yeast UUG start,PABP polyA inh,eIF4H FP inh
COC(=O)c1ccc(S(=O)(=O)N(CCO)Cc2ccccc2)n1C,-4,-1,1,0,i,.,-3,4
NS(=O)(=O)c1ccc(NC(=O)COc2cccc3ccccc23)cc1,-6,-2,-3,-16,i,-18,4,7
COc1cc2c(cc1OC)C(C)N(C(=O)Nc1cc(C)cc(C)c1)CC2 (stereo not given),.,-18,-5,-239,i,4,-5,-5
CCOC(=O)C(C)c1nn(C)c(=O)c2ccccc12 (stereo not given),-7,-9,-2,.,i,-11,3,-3
O=[N+]([O-])c1cccc(-c2nnc(SCc3cccnc3)o2)c1,-13,2,1,-10,i,.,1,-12
O=C(NCc1ccco1)C1CCCN(S(=O)(=O)c2ccc(Cl)cc2)C1 (stereo not given),-8,-5,-6,-14,i,-2,-1,-2
Cc1cccc(C(=O)N2CCc3cc(-c4nc(NC(=O)CN5CCCC5)sc4C)ccc32)c1,.,-5,-1,7,i,-20,10,-3
NNc1nc(-c2ccccc2Cl)nc2sc3c(c12)CCCC3,76*,-6,-4,15,i,-31,1,2
COC(=O)c1cccn(CC(=O)c2ccc(Cl)cc2)c1=O,6,1,0,10,i,.,5,7
O=C(CSc1ccccn1)Nc1ccc(F)c([N+](=O)[O-])c1,1,3,6,14,i,-10,-16,3
Cc1ccc(NC(=O)CN2CCc3cc4c(cc3C2C)OCCCO4)cc1C (stereo not given),3,-2,2,2,i,.,1,-2
NC(=O)c1ccccc1NC(=O)CCN1C(=O)c2ccccc2C1=O,-14,4,3,.,i,.,5,-8
CCN(CC)C(=O)NC1CC(=O)N(c2ccc(OC)cc2)C1 (stereo not given),-18,0,-1,.,i,-14,4,7
CC(=O)Nc1cccc(NC(=O)CSc2nnc3ccc(-c4ccncc4)nn23)c1,-12,3,2,13,i,.,.,.
Cn1cc2c(=O)n(/N=C/c3ccccc3)cnc2n1,2,4,-1,8,i,.,10,-8

Nothing new here: 3 of the compounds above.
SMILES,CSC inhib,MT1-MMP act inh RFP,MT1-MMP act inh,HIV Env fusion,Rce1 inhib,Yeast UUG start,PABP polyA inh,eIF4H FP inh
Cc1ccc(NC(=O)CN2CCc3cc4c(cc3C2C)OCCCO4)cc1C (stereo not given),3,-2,2,2,i,.,1,-2
NC(=O)c1ccccc1NC(=O)CCN1C(=O)c2ccccc2C1=O,-14,4,3,.,i,.,5,-8
CCN(CC)C(=O)NC1CC(=O)N(c2ccc(OC)cc2)C1 (stereo not given),-18,0,-1,.,i,-14,4,7

Continued.
SMILES,CSC inhib,MT1-MMP act inh RFP,MT1-MMP act inh,HIV Env fusion,Rce1 inhib,Yeast UUG start,PABP polyA inh,eIF4H FP inh
COc1cc(C)c(Br)cc1S(=O)(=O)NCCCN1CCOCC1,-21,-2,-3,-23,i,.,-2,1
O=C(c1ccc(Cl)c([N+](=O)[O-])c1)N1CCN(c2ccccc2)CC1,0,-1,2,15,i,.,4,3
Cc1ccccc1NC(=S)NC1CCCC1,-21,-2,0,-51,i,-28,1,-11
COc1ccc(S(=O)(=O)NCc2cccnc2)cc1C(=O)NC1CCCCC1,-9,3,1,9,i,-1,-7,-7
CCCCOc1ccc(C(=O)NCC(=O)NCC(c2ccc(OC)cc2)N2CCCC2)cc1 (stereo not given),27,-2,-2,3,i,-2,.,.
CCc1noc(C)c1C(=O)Oc1ccc(N(C)S(=O)(=O)c2ccccc2)cc1,40,-12,-5,-2,i,-7,.,.
NC(=O)c1c(N)sc2c1CCC2,.,2,-11,-15,.,.,30,45
O=C(Nc1cccs1)N1CCN(c2ncccn2)CC1,-5,5,-3,-9,i,-1,8,36
CC1CCC(N2CCN(C(=O)c3ccccc3F)CC2)CC1 (stereo not given),4,1,-2,1,i,-11,6,15
CCCCCCCCCCCCN1C/C(=C\C(=O)OCC)c2ccccc2S1(=O)=O,27,1,1,.,i,-5,10,1
Cc1cc(C)nc(N2CCCC(C(=O)Nc3ccc4nc(C)c(C)nc4c3)C2)n1 (stereo not given),4,0,1,10,i,7,-1,-1
CCN1CCCC1Cn1cnc2c([nH]c3ccc(OC)cc32)c1=O (stereo not given),-12,0,1,2,i,1,1,-9
Cn1c(SCc2cc(=O)n3cc(Br)ccc3n2)nnc1C1COc2ccccc2O1 (stereo not given),-9,7,7,-64,i,-18,5,41
CC1CCN(CCCNC(=O)CCc2nnc3n(CCc4ccccc4)c(=O)c4ccccc4n23)CC1,-2,-2,-4,11,i,-2,-4,-2
Cn1c(SCC(=O)Nc2ccc3c(c2)oc2ccccc23)nnc1-c1ccccc1,-6,1,-3,.,i,4,20,-8

(more compounds)
SMILES,CSC inhib,MT1-MMP act inh RFP,MT1-MMP act inh,HIV Env fusion,Rce1 inhib,Yeast UUG start,PABP polyA inh,eIF4H FP inh
CN(CC(=O)Nc1cccc(F)c1)C(=O)CCc1nc2sc3c(c2c(=O)[nH]1)CCCC3,3,-9,-14,18,i,-15,.,.
CCCc1nc(-c2ccc(-c3ccc(F)cc3)cc2)no1,3,-12,-2,-35,i,-9,-5,-5
CCCN(CCC)Cc1c(C(=O)N/N=C/c2cccs2)nnn1-c1nonc1N,.,2,1,9,i,-9,5,6
Cc1csc(NC(=O)c2nn(C)c(C)c2[N+](=O)[O-])n1,-18,6,4,-29,i,.,14,6
CC1CCCN(C(=O)CSc2nnc(-c3cccnc3)n2C2CCCCC2)C1 (stereo not given),1,3,4,32,i,-2,5,8
C=CCn1cccc(C(=O)Nc2ccc(OC)cc2)c1=O,10,-2,2,-7,i,.,9,-4
Cc1ccc(NC(=O)Cn2cncc2-c2ccc([N+](=O)[O-])cc2)cc1C,-5,4,14,.,i,15,0,0
O=C(COC(=O)c1cccnc1Cl)NCc1ccc2c(c1)OCO2,-1,7,3,7,i,.,-3,1
CCC(=O)Nc1ccccc1-c1nc2ccccc2[nH]c1=O,.,4,0,-29,i,-2,6,-6
Cc1cc(Br)ccc1SCC(=O)Nc1cccnc1,-5,-17,-3,9,i,.,-19,10
O=C(c1cc(COc2ccc3ncccc3c2)on1)N1CCCC(O)C1 (stereo not given),-7,-20,-4,23,i,-6,-4,-10
Cc1nc2ccc(N=NC3=C(O)CCCC3=O)cc2s1,13,0,1,-23,i,-12,5,18
O=C(Nc1cccnc1)c1ccc2nc(-c3ccccc3)c(-c3ccccc3)nc2c1,.,0,6,2,i,-5,6,2
CC(NC(=O)c1cc(-c2ccc(Br)cc2)on1)c1ccccc1 (stereo not given),13,0,1,4,i,9,-4,2
Cc1ccc(-n2c(SCC(=O)O)nc3sc4c(c3c2=O)CCCC4)cc1,12,3,-3,-4,i,-16,2,7

Continued:
SMILES,CSC inhib,MT1-MMP act inh RFP,MT1-MMP act inh,HIV Env fusion,Rce1 inhib,Yeast UUG start,PABP polyA inh,eIF4H FP inh
CCN(CC)CCOC(=O)C(Cc1ccco1)Cc1cccc2ccccc12 (stereo not given),6,-3,-2,-6,i,9,.,.
CCCCc1nc2c(=O)[nH]c3ccccc3c2o1,-14,6,2,-56,.,-10,-6,-5
Cn1ncc2nnn(-c3ccccc3)c(=O)c21,1,6,2,.,i,9,8,3
O=C(CSc1nc2nc(-c3cccs3)cc(C(F)(F)F)c2c(=O)[nH]1)C(F)(F)F,-9,6,3,29,i,-15,5,-3
COc1cccc(-n2nc3c(=O)n(Cc4ccccc4Cl)nc(C)c3c2C)c1,-8,-7,4,.,i,-7,2,6
CCCC1(C(=O)OCC)NC(c2ccc(N(C)C)cc2)C2C(=O)N(c3ccccc3)C(=O)C21 (stereo not given),2,3,3,-143,i,-7,1,-2
COc1ccc(-n2nc3c(c2NC(=O)C2CCCC2)CS(=O)C3)cc1 (stereo not given),.,3,0,-1,i,-7,0,11
COc1ccc(NC(=O)COC(=O)C2CC(=O)N(Cc3ccc(C)cc3)C2)cc1 (stereo not given),-10,0,-3,4,i,-2,6,0
O=C(NC1CCCC1)C(c1ccncc1)N(C(=O)c1ccco1)c1ccccc1 (stereo not given),-4,1,-5,-1,i,-21,2,2
CCn1ccc(C(=O)Nc2ccsc2C(=O)OC)n1,5,-2,-1,-8,i,-13,4,-1
C=CC[C@H](CC(=O)N(CCO)Cc1ccccc1)C(=O)N[C@H](COC(=O)[C@@H](CC=C)CC(=O)OC(C)(C)C)c1ccccc1,.,-17,-15,-29,.,5,.,.
O=C1OCCC1Sc1ncnc2sc3c(c12)CCC3 (stereo not given),-15,1,-2,.,i,-15,-5,7
COc1ccc(C2CC(=O)Oc3cc(O)cc(O)c32)cc1 (stereo not given),-10,7,4,.,i,20,-5,-5
CC(C)CC(=O)NC(=S)Nc1ccc(S(=O)(=O)NC(C)(C)C)cc1,-4,-4,2,38,i,.,-10,-3
CC(C)(C)c1ccc(NC(=O)c2ccc3c(c2)S(=O)(=O)c2ccccc2C3=O)cc1,-22,0,3,-4,i,12,.,.

The list goes on.
SMILES,CSC inhib,MT1-MMP act inh RFP,MT1-MMP act inh,HIV Env fusion,Rce1 inhib,Yeast UUG start,PABP polyA inh,eIF4H FP inh
CC(C)N1CC(COc2ccccc2Cl)OC1=O (stereo not given),-10,3,4,-3,i,.,.,.
CNCCOc1nc(N2CCOCC2)nc(C)c1[N+](=O)[O-],.,-1,-1,-51,i,-16,-8,-2
CCS(=O)(=O)c1ccc(OC)c(N=Nc2ccc(O)c3ncccc23)c1,-4,-20,-9,36,i,.,-3,21
CSc1nc(Cc2ccccc2)cc(=O)[nH]1,-9,7,4,-19,i,.,4,1
COC(=O)c1ccc(NC(=O)C2CC(=O)OC2c2ccccc2)cc1 (stereo not given),-22,0,-1,4,i,0,2,9

Compound activity as filed in PubChem.
